CBX7 AlphaScr = CBX7 inhibition, primary AlphaScreen. O95931. AlphaScreen His6-CBX7 / biotin-H3K27me3 peptide binding; active compounds read low. normalised signal (fraction of DMSO) (no concentration beside the values). 66,000 tested, 1.1% active. AID 1224903; in the data active = normalised signal below about 0.5;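 note: 100 nL library stock added to about 20 µL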
Target sequence (O95931 whole entry, looked up): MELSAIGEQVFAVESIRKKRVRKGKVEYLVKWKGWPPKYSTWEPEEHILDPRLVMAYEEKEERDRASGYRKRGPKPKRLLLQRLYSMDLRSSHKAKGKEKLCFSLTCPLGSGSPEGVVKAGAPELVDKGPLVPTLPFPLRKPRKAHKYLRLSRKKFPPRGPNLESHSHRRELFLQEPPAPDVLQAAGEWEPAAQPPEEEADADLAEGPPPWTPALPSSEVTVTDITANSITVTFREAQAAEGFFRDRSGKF
CBX7 AlphaScr z-score = recorded beside CBX7 AlphaScr, whose call it bears; z-score; measured here: z-score of CBX7 signal; some inactives read as strong as hits; reference of the scale not given here;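 same signal on another scale; lower means less binding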
* = called active by the depositor. This is a subset; the hit share may differ from the screen's.

entry	Compound	CBX7 AlphaScr	CBX7 AlphaScr z-score
1	Cc1cc(C)cc(NC(=O)CN(C)S(=O)(=O)c2ccc3c(c2)CCC(=O)N3)c1	0.95	-1.2
2	CC(Sc1nnc(Cc2cccc3ccccc23)n1-c1ccccc1)C(=O)O (stereo not drawn)	1.1	2.1
3	Fc1ccc(-c2nnc3ccc(NCCCc4ccccc4)nn23)cc1	0.94	-1.3
4	CC(C)CCNC(=O)c1cc(=O)[nH]c2ccc(S(=O)(=O)N3CCCC(C)C3)cc12 (stereo not drawn)	0.96	-0.56
5	OCCNc1ncnc2c1c(-c1ccccc1)cn2-c1ccc(Br)cc1	1	0.87
6	O=C(CCN1C(=O)COc2ccccc21)NC1CCCC1	1	1.1
7	COc1ccc(C2(C(=O)NCCc3ccccc3)CCCC2)cc1OC	1.1	1.5
8	CCc1nc(SCc2ccc(Cl)cc2Cl)c(C#N)c2c1CCCC2	1.4	8.2
9	CCC1Oc2ccccc2N(CC(=O)NCCc2ccc(Cl)cc2)C1=O (stereo not drawn)	1	0.87
10	FC(F)(F)c1nnc(N2CCN(c3ccc(Cl)cc3)CC2)s1	0.9	-1.4
11	COc1ccc(C(=O)c2c(C)c3ccccc3n2CC(O)CNC(C)C)cc1 (stereo not drawn)	0.98	-0.86
12	CC(=O)N1CCc2cc(S(=O)(=O)N3CCCCC3)ccc21	1.3	2.7
13	O=C1CC(N2CCN(c3ncccn3)CC2)C(=O)N1c1ccc(F)cc1 (stereo not drawn)	1.1	1.3
14	COc1ccc(C(C(=O)NC2CCCC2)N2CCC3(CC2)OCCO3)cc1 (stereo not drawn)	1	-0.2
15	Cc1ccc(-c2ccc(=O)n(CC(=O)NCCc3ccccc3)n2)cc1	0.98	-0.88
16	COc1ccc(-c2nc(-c3nonc3N)no2)cc1	1.1	2

Filtered by structure: those above with an aryl methoxy group (4)
entry	Compound	CBX7 AlphaScr	CBX7 AlphaScr z-score
7	COc1ccc(C2(C(=O)NCCc3ccccc3)CCCC2)cc1OC	1.1	1.5
11	COc1ccc(C(=O)c2c(C)c3ccccc3n2CC(O)CNC(C)C)cc1 (stereo not drawn)	0.98	-0.86
14	COc1ccc(C(C(=O)NC2CCCC2)N2CCC3(CC2)OCCO3)cc1 (stereo not drawn)	1	-0.2
16	COc1ccc(-c2nc(-c3nonc3N)no2)cc1	1.1	2

Next part:
entry	Compound	CBX7 AlphaScr	CBX7 AlphaScr z-score
17	Cc1ccc(-c2noc(CCC(=O)N3CCN(c4cc(Cl)ccc4C)CC3)n2)cc1	1	0.86
18	COCCNC(=O)C1CC(c2cc(OC)ccc2OC)=NO1 (stereo not drawn)	1	1.5
19	Cc1cc(N2CCN(C)CC2)nc2ccc(NC(=O)c3ccc(F)cc3Cl)cc12	0.96	-0.47
20	Cc1ccc2c(c1)NC(=O)C(CC(=O)Nc1ccc(Br)c(C)c1)O2 (stereo not drawn)	1	1.4
21	CCOC(=O)c1cc(-c2ccc(OC)cc2)n(CCC(=O)Nc2cc(C)cc(C)c2)c1C	1	0.17
22	COc1cccc(CNC(=O)CN2N=C(c3ccccc3)CCC2=O)c1	1.1	1.6
23	COc1cc2c(cc1OC)C(C(=O)N1CCN(c3ccccn3)CC1)C(c1ccccc1F)N(C)C2=O (stereo not drawn)	0.92	-0.86
24	COc1ccc(-c2nc(CN3CCC(C(=O)NC(C)CCc4ccccc4)CC3)c(C)o2)cc1OC (stereo not drawn)	1.1	0.8
25	Cc1nc2ncnn2c(C)c1CCC(=O)Nc1cc(F)ccc1F	1.1	1.7
26	COc1ccc(-c2[nH]c(-c3ccc(Cl)cc3)nc2SCC(=O)NCC2CCCO2)cc1 (stereo not drawn)	0.9	-0.43
27	COc1ccccc1Nc1nc(-c2ccccc2)c2cc(Br)ccc2n1	1.9	25
28	Fc1ccc2[nH]c3c(c2c1)CN(Cc1ccccc1)CC3	0.95	-1.3
29	CCOC(=O)c1cnc2c(C)c(Cl)ccc2c1NCCN1CCOCC1	1.1	3.2
30	O=C(Nc1cccc(C(F)(F)F)c1)C1CCCN(S(=O)(=O)c2cccc3cccnc23)C1 (stereo not drawn)	0.78	-0.29
31	O=C(Nc1ccc(-c2noc(-c3ccccc3F)n2)cc1)c1cccc(Cl)c1	1.1	1.4
32	COc1cccc(C2=NOC(C(=O)Nc3ccc(F)cc3F)C2)c1 (stereo not drawn)	1.1	0.97
33	O=C(CSc1nnc(-c2ccccc2)o1)Nc1nc(-c2ccccc2)cs1	1.1	2.4
34	CC(NC(=O)c1c(O)c2ccccc2n(C)c1=O)c1ccccc1 (stereo not drawn)	1.1	2.1
35	CCCn1c2ccccc2c2nnc(SCc3[nH]c(=O)[nH]c3C(=O)CCCCC(=O)OCC)nc21	0.87	-1.8
36	O=c1[nH]c(SCc2ccc(Cl)cc2)nc2c1CCCC2	1.1	0.82
37	O=C(COc1ccc(Cl)cc1)Nc1c2c(nn1-c1cccc(Cl)c1)CS(=O)(=O)C2	0.89	-0.7
38	COc1ccc(OC)c(-c2cc(C(=O)NCc3cn(C)nc3C)c3ccccc3n2)c1	1	1.2
39	O=C(CSc1nnc(Cc2cc(=O)[nH]c(=O)[nH]2)n1-c1ccccc1)NCc1ccccc1Cl	1.1	2.7
40	Cc1ccccc1NC(=O)c1c(-c2ccccc2Cl)noc1C	0.94	-0.89
41	O=C(C1CC1)N1CCc2cc(S(=O)(=O)NC3CCCC3)ccc21	0.99	-0.13
42	CCc1ccc(OCC(=O)Nc2cc(-c3nc4ccccc4o3)ccc2OC)cc1	1	0.027
43	O=C(NCCCN1CCN(c2cccc(Cl)c2)CC1)[C@@H](c1ccccc1)N1Cc2ccccc2C1=O	0.95	-1.4
44	O=C(Nc1ccc(Cl)c(-c2nc3ccccc3[nH]2)c1)c1cc(Cl)ccc1Cl	0.96	-1.3
45	O=C1CCc2cc(S(=O)(=O)NC(Cc3ccccc3)C(=O)N3CCN(C4CCCC4)CC3)ccc2N1 (stereo not drawn)	1	0.053
46	Cc1ccc(-c2nnc(Nc3ccc(C(N)=O)cc3)c3ccccc23)cc1S(N)(=O)=O	1.1	2
47	Cc1onc(-c2ccccc2Cl)c1C(=O)NC1CCCCCC1	1	0.41
48	CCCC(O)(c1ccc(OC)c(F)c1)C(CN1CCCCC1)c1ccccc1 (stereo not drawn)	0.86	-0.38
49	CCOC(=O)c1c(NC(=O)c2ccc(OC)c(OC)c2)sc2c1CCC(C)C2 (stereo not drawn)	1.1	0.36
50	CN(CCc1ccccn1)Cc1ccc2c(c1)OCO2	0.99	-0.49
51	CN(CCNC(=O)c1ccc2nc(N3CCOCC3)sc2c1)C1CCCCC1	1.1	1.4
52	CCN(CCCNC(=O)c1cn(C2CCCC2)c(=O)c2c1c1ccccc1n2C)c1cccc(C)c1	0.92	-2.2
53	CCOc1ccc(-c2cc(C(=O)NCCC(C)C)c3ccccc3n2)cc1	0.98	-0.44
54	CCOc1ccc(Nc2nc(-c3ccc(Cl)cc3)cs2)cc1	0.77	-4
55	Cc1ccc(-n2ncnc2-c2cccc(Br)c2)cc1Cl	1.1	1.5
56	NC(=O)CSc1nc2cc(Cl)ccc2o1	1	-0.089
57	COCCCNC(=O)CS(=O)(=O)Cc1nc(-c2ccccc2Cl)oc1C	1	-0.14
58	CCCCN(CC)CCCNC(=O)Cn1nc(-c2ccccc2)ccc1=O	0.95	-1.4
59	Cc1ccc(CCNC(=O)c2ccc3c(c2)N(Cc2ccc(F)cc2)C(=O)c2ccccc2S3=O)cc1 (stereo not drawn)	1	-0.13
60	Cc1oc(-c2ccc(Cl)cc2)nc1CN1CCCC(C(=O)NCc2ccc(Cl)cc2)C1 (stereo not drawn)	0.89	-1.3
61	Cc1ccc(-c2nc(C(=O)NCc3ccc(F)cc3)c(C)o2)cc1	1	0.064
62	O=C(c1ccccc1)N1CCN(C2CC(=O)N(c3cccc(Cl)c3)C2=O)CC1 (stereo not drawn)	1.1	0.92
63	CC(Oc1ccccc1)C(=O)N1CC(=O)Nc2ccc(Br)cc2C1c1ccc(F)cc1 (stereo not drawn)	0.91	-1.2
64	Cc1cc(C)cc(NC(=O)c2cnc3scc(C)n3c2=O)c1	1.1	1.7
65	CC(C)OCCCNS(=O)(=O)c1ccc2c(c1)CCN2C(=O)C1CCC1	1	0.84
66	Cc1c(C(=O)Nc2ccc(Oc3ccccc3)cc2)oc2ccc(S(=O)(=O)N3CCCC3)cc12	0.99	-0.15
67	COc1ccc(-c2[nH]c(-c3ccccc3)nc2SCC(=O)Nc2ccc3c(c2)OCCO3)cc1	0.79	-9.9
68	CCN1C(=O)c2ccccc2Sc2ccc(C(=O)NCCC3=CCCCC3)cc21	0.96	-1.2
69	CCOc1ccc(C(=O)Nc2ccc(-c3nc4cc(Cl)ccc4o3)cc2)cc1Cl	0.95	-0.84
70	Cc1ccc(OCC(=O)Nc2ccc3oc(-c4cccnc4)nc3c2)cc1C	0.93	-1.4
71	Cc1c(C(=O)NCc2ccccn2)oc2ccc(S(=O)(=O)N3CCCC3)cc12	1	0.038
72	Cc1cccc(C)c1NC(=O)C1CCN(C(=O)c2cc3sccc3n2Cc2ccc(F)cc2)CC1	1	0.7

Further results
entry	Compound	CBX7 AlphaScr	CBX7 AlphaScr z-score
73	Cc1cc(NC(=O)CSc2nc3ccccc3[nH]2)no1	0.96	-0.5
74	Cc1ccc(Cn2ccc(NC(=O)c3c(-c4ccccc4Cl)noc3C)n2)cc1	1.1	0.096
75	Cc1ccc(C2=NN(CCC(=O)NCCN(C)Cc3ccccc3)C(=O)CC2)cc1	1	0.48
76	O=C(NCCCN1CCN(c2ccccc2F)CC1)c1ccc2c(c1)NC(=O)c1ccccc1S2	1.1	0.8
77	CCOC(=O)C1CCCc2c1[nH]c1c(C(=O)NCc3ccc(Cl)cc3)cccc21 (stereo not drawn)	0.66	-9.3
78	CCC1Oc2ccc(C)cc2N(CC(=O)NCCN2CCOCC2)C1=O (stereo not drawn)	0.99	-0.31
79	COCCNc1oc(-c2ccc(OC)cc2)nc1C#N	1.1	1.3
80	CCOc1ccc(-n2nc(C(=O)Nc3ccc(C)cc3Br)c3ccccc3c2=O)cc1	1	0.54
81	CCN(CC)S(=O)(=O)c1ccc(C(=O)Nc2nnc(-c3cccs3)o2)cc1	0.73	-2.6
82	CCC(=O)N1c2ccccc2NC2=C(C(=O)CCC2)C1c1ccc(OC)c(OC)c1 (stereo not drawn)	1	-0.073
83	O=S(=O)(NC1CCCCC1N1CCOCC1)c1ccc(Cl)cc1 (stereo not drawn)	1	0.011
84	CCc1ccccc1NC(=O)C1(S(=O)(=O)c2ccc(C)cc2)CC1	1	0.94
85	CCCn1c(CCCNC(=O)c2cccc(C)c2)nc2ccccc21	0.98	-0.56
86	CCCNC(=O)Cn1cnc2sc(C(=O)NCC(=O)OCC)c(C)c2c1=O	1	-0.051
87	COc1ccc(-c2nc3ncccn3c2Nc2cccc(C)c2)cc1	1.1	1.3
88	O=C(O)Cn1nc(-c2ccccc2)c2ccccc2c1=O	1.1	1.6

Entries of single compounds, quoted from the list:
Profile of CCCn1c(CCCNC(=O)c2cccc(C)c2)nc2ccccc21 → CBX7 AlphaScr: 0.98; CBX7 AlphaScr z-score: -0.56
Profile of CCc1ccccc1NC(=O)C1(S(=O)(=O)c2ccc(C)cc2)CC1 → CBX7 AlphaScr: 1; CBX7 AlphaScr z-score: 0.94

Further records:
entry	Compound	CBX7 AlphaScr	CBX7 AlphaScr z-score
89	Cn1cc(CC(=O)NC2CCCCCC2)c2ccccc21	1.1	0.84
90	Cc1ccc(CN2CCN(CC(=O)NC(C)c3ccccc3)C2=O)cc1 (stereo not drawn)	0.98	-0.72
91	CCCCCCc1c(O)nc(SCCN(C)C)n(-c2ccccc2)c1=O	1	1.5
92	COc1ccc(NC(=O)Cn2c(SCc3ccccc3F)nc3ccncc32)cc1OC	0.96	-2.1
93	COc1ccc(C(=O)N2CC(=O)Nc3ccc(F)cc3C2c2ccccc2)cc1 (stereo not drawn)	0.98	-0.051
94	Cc1nn(Cc2c(Cl)cccc2Cl)c(C)c1NC(=O)c1cc(-c2cccs2)on1	0.79	-2.1
95	O=C(c1ccc2c(=O)n(CCc3ccccc3)c(=O)[nH]c2c1)N1CCN(c2ncccn2)CC1	0.97	-0.86
96	CCOc1ccc(-c2csc(NC(=O)CCc3ccccc3)n2)cc1	1	0.22
97	Cc1ccc(C)c(Cc2c(C)nc3c(C(=O)N4CCCC4)cnn3c2C)c1	1	-0.12
98	O=C(NCCCN1CCOCC1)c1cc(Sc2ccc(Cl)cc2)nc2ccccc12	1.1	1.3
99	CC(C)c1ccc(CNC(=O)CSc2nnc(-c3cccc(F)c3)n2-c2ccccc2)cc1	1.1	0.86
100	COc1ccc(CNC(=O)C(=O)Nc2ccc(Cl)cc2C)cc1	1	0.88
101	C=CCn1c(SCC(=O)Nc2ccc(OC)cc2)nnc1-c1cccnc1	1.1	1.5
102	COc1ccc(-c2nnc(Nc3ccc4c(c3)OCO4)c3ccccc23)cc1	0.53	-5.3
103	Cc1ccc(C23CC4CC(C2)CC(c2csc(NC(=O)c5ccc(F)cc5)n2)(C4)C3)cc1	1	0.013
104	COc1ccccc1NC(=O)Cn1cnc2sc(C(=O)N3CCC(C)CC3)c(C)c2c1=O	1.3	3.3
105	CCC(Cc1ccccc1)NC(=O)C1CCN(c2nc3ccccc3[nH]2)CC1 (stereo not drawn)	0.88	-1.4
106	COc1ccc(C(=O)c2oc3ccccc3c2NC(=O)COc2ccc(C)cc2)cc1	1	-0.028
107	CCOC(=O)CSc1nnc(Cc2cc(=O)[nH]c(=O)[nH]2)n1-c1ccc(F)cc1	1.1	0.16
108	Cc1ccccc1Nc1c(-c2ccccn2)nc2cnccn12	0.8	-1.9
109	COc1ccc(-n2nnc3c(=O)n(CC(=O)Nc4ccc5c(c4)OCO5)cnc32)cc1	1	0.85
110	COc1cccc(-c2nn(C)c3sc(C(=O)N4CCC(Cc5ccccc5)CC4)cc23)c1	1	0.38

From PubChem
